MT1-MMP reporter = MT1-MMP gene expression reporter suppression – cell-based, luciferase reporter, luminescence (AID 618) | MT1-MMP promoter luciferase reporter cells, luminescence | calls from a first round at 10 µM; hits with a dose series show EC50 in µM | 87,000 compounds, 0.62% hits;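 active = over half of the reporter light lost at 10 µM or EC50 under 50 µM; inactive = the rest and hits that failed the dose series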;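 also: actives suppress MT1-MMP promoter-driven transcription so potencies describe inhibitors; HT1080 fibrosarcoma cells; overnight exposure; toxic or luciferase-blocking compounds were not removed from the actives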
Hsc70 ATP site = small molecules displacing fluorescent ligand from Hsc70 – biochemical, fluorescence polarization, primary screen (AID 568); one-dose displacement, % at 20 µM; IC50 in µM for titrated hits; Hsc70 fluorescence polarization, probe displacement; higher % means a stronger effect; strong numbers were not always called active; 83,000 tested, under 10 active;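 active = displacement above 50% without optical interference and an IC50 on retest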;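 also: ATPase domain with a fluorescein-tagged ATP probe; 0% = vehicle and 100% = excess ADP; read after one hour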
WNV protease inh = inhibitors of West Nile virus NS2B-NS3 protease | P06935 | WNV NS2B-NS3 protease, fluorogenic substrate Ex360/Em465; active compounds read low | z-score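 (tested at a level between 10 and 100 µM)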 | 65,000 compounds, 0.18% hits;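 active = z-score at -3 or under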;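 also: score is relative to mean and spread of the compound wells of a plate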
Target sequence (P06935 1371-1501 limits assumed): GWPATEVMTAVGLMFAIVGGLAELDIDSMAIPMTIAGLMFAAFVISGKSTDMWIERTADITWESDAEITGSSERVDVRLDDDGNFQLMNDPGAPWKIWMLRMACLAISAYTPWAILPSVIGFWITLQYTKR
Target sequence (P06935 1502-1679 limits assumed): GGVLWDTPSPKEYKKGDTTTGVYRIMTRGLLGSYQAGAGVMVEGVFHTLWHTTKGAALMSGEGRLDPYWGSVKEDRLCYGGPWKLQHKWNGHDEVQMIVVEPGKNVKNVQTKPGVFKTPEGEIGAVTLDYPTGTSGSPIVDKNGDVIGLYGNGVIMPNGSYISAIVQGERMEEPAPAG
The depositor's hits bear a star; i = inactive; · = not tested or not shown; + = active, no number.

SMILES	MT1-MMP reporter	Hsc70 ATP site	WNV protease inh
O=C(NC1c2ccccc2-c2ccccc21)N1CCOCC1	i	6.8%	-0.39
COCCCNC(=O)Cn1cc(C(=O)c2cccs2)c2ccccc21	i	1.3%	·
Cc1onc(-c2c(F)cccc2Cl)c1C(=O)OCN1C(=O)c2ccccc2C1=O	i	5.2%	-0.01
O=c1cc(O)nc2n1CCCS2	i	-11%	0.51
NC(=O)c1cccc2c1C(=O)N(C1CCCCC1)C2	i	-1.2%	-1.1
COc1ccc(F)cc1S(=O)(=O)NC(Cc1ccccc1)C(N)=O (stereo not given)	i	-5.3%	1.1
CCOC(CNC(=O)c1cc(C)nn1-c1ccccc1)OCC	i	4.5%	·
O=C(Nc1cccc(-c2nnc(-c3ccccc3)o2)c1)C1CCCCC1	i	7.1%	0.46
COC(=O)C1CCN(S(=O)(=O)c2ccc(NC(C)=O)cc2)CC1	i	0.8%	·
O=c1[nH]c(CN2CCc3ccccc3C2)nc2ccccc12	i	9.0%	1.4
O=C(NNC1=C(C(=O)C(F)(F)F)CCC1)c1cccc(O)c1	i	6.4%	·
CCOC(=O)c1c(C)n(C)c2cc(Br)c(C(=O)OC)cc12	i	-4.2%	1.2
CC(Oc1ccc(Cl)cc1Cl)C(=O)NCCCN(C)C (stereo not given)	i	1.3%	0.05
Cc1c(N=Cc2nc3ccccc3[nH]2)c(=O)n(-c2ccccc2)n1C	i	-4.4%	-0.17
CCOC(=O)CNc1c(N2CCN(c3ccccn3)CC2)c(=O)c1=O	i	0.5%	-1.3
COc1ccccc1-n1nc(C(=O)O)c2ccccc2c1=O	i	-30%	-0.93
Cc1nc2c(C#N)c[nH]n2c(=O)c1Cc1ccccc1	i	0.7%	·
O=C(c1ccccc1)N1CCN(C(=O)c2ccncc2)CC1	i	1.1%	·
Cc1oc2c(c1C(=O)NC(Cc1c[nH]c3ccccc13)C(=O)O)CCCC2 (stereo not given)	i	-0.7%	-0.09
CC(=O)c1ccc(Oc2cc(C)nc(NCc3ccccc3)n2)cc1	i	5.3%	·
CC(=O)Nc1ccc(C(=O)Nc2ccc3c(c2)OCO3)cc1	i	-0.7%	-2.2
N/C(Cc1cccs1)=N\OC(=O)COc1ccc(Cl)cc1Cl	i	3.5%	·
CNC(=O)C1C2C=CC3(O2)C1C(=O)N(CCOC)C3C(=O)NCc1ccc(OC)cc1 (stereo not given)	i	-0.5%	-0.52
c1csc(C2=Nn3c(nnc3-c3ccncc3)SC2)c1	i	3.6%	·
O=C(NCC1CCCO1)C1CCN(C(=O)c2ccc(Cl)cc2)CC1 (stereo not given)	i	5.1%	0.3
CCOC(=O)c1[nH]c2ccccc2c1NC(=O)C1CCCCC1	i	-4.1%	·
CCCN(c1ccc(OCC)cc1)S(=O)(=O)c1ccc2c(c1)CCN2C(=O)CCC(=O)O	i	-14%	0.58
COc1cc(C(=O)N2CCN(c3ncnc4sc(C)c(C)c34)CC2)cc(OC)c1OC	i	-3.5%	1.5
O=[N+]([O-])c1ccc(-c2nnc(CSc3nc(-c4ccccc4)nc4ccc(F)cc34)o2)cc1	i	3.1%	·
CC(NC(=O)c1ccccc1)C(=O)NC1=NCCS1 (stereo not given)	i	-2.4%	-0.01

2 of the compounds above, as labelled records.
CC(=O)c1ccc(Oc2cc(C)nc(NCc3ccccc3)n2)cc1
- MT1-MMP reporter: i
- Hsc70 ATP site: 5.3%
- WNV protease inh: ·

c1csc(C2=Nn3c(nnc3-c3ccncc3)SC2)c1
- MT1-MMP reporter: i
- Hsc70 ATP site: 3.6%
- WNV protease inh: ·

Continuation.
SMILES	MT1-MMP reporter	Hsc70 ATP site	WNV protease inh
O=C(OCCNC(=O)c1ccc2ccccc2n1)c1ccc(F)cc1	i	3.4%	·
O=C(CN1CCC(C(=O)c2ccc(F)cc2)CC1)Nc1ccc(F)cc1	i	7.2%	·
Cc1cc(C)c2c(CC(=O)N(CCC#N)Cc3cccnc3)coc2c1	i	0.9%	0.45
Nc1nc(CSc2ncn(-c3ccccc3)n2)cs1	i	2.1%	-0.91
CCOc1ccc2nc(NCCO)[nH]c2c1	i	3.1%	0.39
CC(=O)N(CC1CCCO1)c1nnc(-c2ccccn2)s1 (stereo not given)	i	2.4%	0.0044
CCOc1ccc(-c2c[n+](=O)c3c(n2[O-])CCCC3)c(OCC)c1	i	-3.6%	·
CC1CN(CC(O)COc2ccc(C(C)C)cc2)CC(C)O1 (stereo not given)	i	-0.7%	0.23
O=C(Nc1ccccc1)C1=C(O)CC(c2ccoc2)CC1=Nc1ccccc1 (stereo not given)	i	-6.8%	-0.37
Cc1nc(N2CCN(C(c3ccccc3)c3ccccc3)CC2)[nH]c(=O)c1C	i	-1.5%	1.9
COC(=O)c1ccc(-n2nnnc2SCC(=O)N2CCCCC2)cc1	i	3.2%	1.5
COc1ccc(NC(=O)C(CCS(C)(=O)=O)N2C(=O)c3ccccc3C2=O)cc1 (stereo not given)	i	2.1%	·
CCC(=O)N1CCc2cc(Br)cc(S(=O)(=O)C3(C(=O)OC)CC3)c21	i	3.7%	-0.14
COC(=O)c1ccccc1NC(=O)CSc1nnc(Cc2ccc(Cl)cc2)o1	i	1.3%	0.21
Cc1ccc(-n2cc3c(=O)n(C)c(=O)n(C)c3c2)cc1C	i	-0.7%	-0.5
CCn1cnc2sc(C(=O)N3CCN(Cc4ccc5c(c4)OCO5)CC3)c(C)c2c1=O	i	-1.1%	0.3
Cc1cc(Br)ccc1NC(=O)CNC(=O)CSc1n[nH]c(N)n1	i	3.2%	-0.6
COc1ccc(NC(=O)N2CCC(NC(=O)c3ccco3)CC2)cc1	i	-2.2%	-0.26
O=C1CC(c2ccc(S(=O)(=O)Nc3cc(C(F)(F)F)cc(C(F)(F)F)c3)cc2)CN1 (stereo not given)	i	0.6%	·
Cn1c(=O)oc2cc(S(=O)(=O)NCCC(=O)NCCc3ccccc3)ccc21	i	4.8%	-0.12
COc1cc(OC)c(OC)cc1NC(=O)CC1COc2ccccc2O1 (stereo not given)	i	0.7%	·
O=C(Nc1cccc(Cl)c1)N1CCCC1	i	-2.4%	·
CSc1nc(SCC(=O)NCc2ccco2)c2c3c(sc2n1)COC(C)(C)C3	i	-0.5%	0.59
c1csc(-n2nc3ccccc3n2)c1	i	-5.8%	-0.69
CCOC(=O)C1CCCN(S(=O)(=O)c2ccc(OC)cc2)C1 (stereo not given)	i	1.6%	·
COc1cc(C(=O)Nc2nncs2)cc(OC)c1OC	i	0.3%	-0.64
CCc1ccc(CCC(=O)Nc2ccc(C)c(C)c2)o1	i	-7.1%	-2
CCOC(=O)CN(C(=O)CSc1nnc(-c2ccncc2)n1CCCOC)c1ccccc1	i	-0.2%	·
CC(=O)N=c1c(C#N)cc2c(=O)n3cccc(C)c3nc2n1CC(C)C	i	-4.0%	1.4
CN(CC(=O)NCc1ccccc1)S(=O)(=O)c1cnc[nH]1	i	-0.7%	·
CCc1ccc(OCC(O)CN2CCN(c3ccccc3)CC2)cc1 (stereo not given)	i	8.3%	0.6
COc1ccc(N2CCN(C(=O)c3c(-c4ccccc4)noc3C)CC2)cc1	i	7.7%	1.4
c1ccc2sc(C3CCN(Cc4nnnn4Cc4ccc5c(c4)OCO5)CC3)nc2c1	i	-0.4%	·
O=C(CSc1nnc(C2CCCCC2)n1Cc1ccccc1)NCc1ccco1	i	-3.7%	-1.1
COc1cccc(OC)c1-c1nn2c(-c3ccco3)nnc2s1	i	-2.1%	-1.7
Cc1nn(C(C)C(=O)NCC2CCCO2)c(=O)c2cc3occc3n12 (stereo not given)	i	-1.0%	-0.12
COC(=O)CN1C(=O)C(C)(C)Oc2ccc(C(=O)NC3CC3)cc21	i	1.4%	0.8
C/C=C(\C)c1nnc(NC(=O)OCC)s1	i	-4.0%	-1.2
CC(C)(C)C(=O)Nc1ncc(C(F)(F)F)cc1Cl	i	2.3%	-0.68
NC(=O)NC(=O)CSc1cccc(C(F)(F)F)c1	i	4.5%	0.05
CCOc1ccc(Cn2nnc(C(=O)NCc3ccccc3)c2N)cc1	i	-1.9%	-0.54
CCCCC(=O)Nc1ccc(NC(=O)c2ccc3c(c2)OCO3)cc1OC	i	-4.1%	-0.49
COc1ccc(-c2ccc(-c3noc(-c4cccc(OC)c4)n3)c(OC)n2)cc1	i	-14%	1.1
COc1ccc(Nc2cc(C)nc(-n3nc(C)cc3C)n2)cc1	+	-1.1%	0.36
CCOC(=O)CC(=O)CSc1nc2c(cc1C#N)CCC2	i	4.4%	·
O=C(OCc1csc(-c2ccccc2)n1)c1cccs1	i	-5.3%	0.89
Cc1nnc(-n2cnc3ccccc32)c2ccccc12	i	-0.6%	-0.6
COc1cccc(N(C(C)=O)c2nc(C)cc(C)c2C#N)c1	i	-5.5%	0.32
COC(=O)c1cc2ccc(OC)c(OC)c2c(=O)s1	i	3.8%	0.39
C=C(C)CSC1=C(C#N)C(c2ccccc2Cl)CC(=O)N1 (stereo not given)	i	-9.1%	-0.34
Cc1cc(C)n(-c2ccc(C(=O)OCc3nnc(-c4ccccc4)o3)cc2)n1	i	7.0%	0.66
COc1cccc(N2C(=O)C3CCCN3C2c2ccc(Cl)cc2)c1 (stereo not given)	i	-0.3%	0.35
c1ccc(-n2c(Sc3cnccn3)nnc2-c2cccs2)cc1	i	0.2%	0.09
CCOC(=O)CSc1nnc(CSc2nc3ccccc3s2)n1C	i	2.0%	-0.31
COC(=O)C1=CN(C)C=C(C(=O)OC)C1c1ccc(Cl)cc1Cl	i	-3.5%	-0.06
COc1ccc(C2C(C(=O)NCCN(C)C)c3cc(OC)c(OC)cc3C(=O)N2C)cc1OC (stereo not given)	i	-3.6%	-1.1
CCOC(=O)c1c(N)n[nH]c1-c1ccc(OC)cc1	i	1.4%	1.6
CC1=C(C(=O)N(C)C)C(c2cccc(Cl)c2)NC(=O)N1 (stereo not given)	i	-2.0%	0.21
O=C1CSc2ccc(C(=O)N3CCN(c4ccccn4)CC3)cc2N1	i	2.0%	-0.88
O=C(NC1CCCC1)C1CCC(=O)N1CCc1ccccc1 (stereo not given)	i	-3.2%	·
COc1ccc(NC(=O)Cn2c(=O)n(Cc3ccco3)c(=O)c3ccccc32)cc1	i	-0.3%	·
Cc1cnc(-c2nnc(N(C)C(=O)c3cccnc3)s2)cn1	i	-2.1%	-0.69
COc1ccc(NC(=O)CSc2nc3c(c(=O)n2-c2ccc(F)cc2)SCC3)cc1	i	4.3%	-0.09

Some of these compounds in order of molecular weight, low to high:
SMILES	MT1-MMP reporter	Hsc70 ATP site	WNV protease inh
C/C=C(\C)c1nnc(NC(=O)OCC)s1	i	-4.0%	-1.2
Cc1nnc(-n2cnc3ccccc32)c2ccccc12	i	-0.6%	-0.6
CCOC(=O)c1c(N)n[nH]c1-c1ccc(OC)cc1	i	1.4%	1.6
NC(=O)NC(=O)CSc1cccc(C(F)(F)F)c1	i	4.5%	0.05
COC(=O)c1cc2ccc(OC)c(OC)c2c(=O)s1	i	3.8%	0.39
CC(C)(C)C(=O)Nc1ncc(C(F)(F)F)cc1Cl	i	2.3%	-0.68
CC1=C(C(=O)N(C)C)C(c2cccc(Cl)c2)NC(=O)N1 (stereo not given)	i	-2.0%	0.21
COc1cccc(N(C(C)=O)c2nc(C)cc(C)c2C#N)c1	i	-5.5%	0.32
O=C(NC1CCCC1)C1CCC(=O)N1CCc1ccccc1 (stereo not given)	i	-3.2%	·
O=C(OCc1csc(-c2ccccc2)n1)c1cccs1	i	-5.3%	0.89
CCOC(=O)CC(=O)CSc1nc2c(cc1C#N)CCC2	i	4.4%	·
C=C(C)CSC1=C(C#N)C(c2ccccc2Cl)CC(=O)N1 (stereo not given)	i	-9.1%	-0.34
COC(=O)CN1C(=O)C(C)(C)Oc2ccc(C(=O)NC3CC3)cc21	i	1.4%	0.8
COc1cccc(N2C(=O)C3CCCN3C2c2ccc(Cl)cc2)c1 (stereo not given)	i	-0.3%	0.35
CCOc1ccc(Cn2nnc(C(=O)NCc3ccccc3)c2N)cc1	i	-1.9%	-0.54
O=C1CSc2ccc(C(=O)N3CCN(c4ccccn4)CC3)cc2N1	i	2.0%	-0.88
COC(=O)C1=CN(C)C=C(C(=O)OC)C1c1ccc(Cl)cc1Cl	i	-3.5%	-0.06
CCCCC(=O)Nc1ccc(NC(=O)c2ccc3c(c2)OCO3)cc1OC	i	-4.1%	-0.49
Cc1cc(C)n(-c2ccc(C(=O)OCc3nnc(-c4ccccc4)o3)cc2)n1	i	7.0%	0.66
CCOC(=O)CSc1nnc(CSc2nc3ccccc3s2)n1C	i	2.0%	-0.31
COc1ccc(-c2ccc(-c3noc(-c4cccc(OC)c4)n3)c(OC)n2)cc1	i	-14%	1.1
COc1ccc(NC(=O)Cn2c(=O)n(Cc3ccco3)c(=O)c3ccccc32)cc1	i	-0.3%	·
COc1ccc(NC(=O)CSc2nc3c(c(=O)n2-c2ccc(F)cc2)SCC3)cc1	i	4.3%	-0.09
COc1ccc(C2C(C(=O)NCCN(C)C)c3cc(OC)c(OC)cc3C(=O)N2C)cc1OC (stereo not given)	i	-3.6%	-1.1
